# From PubChem BioAssay
# PrP UTR inh = inhibition of PrP 5' UTR reporter expression; cell-based PrP 5' UTR mRNA reporter, plate reader; inhibition, % (no concentration beside the values); hit rate 0.35% among 340,000;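 active means every replicate at 50% or more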;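 further: 0 = median of the neutral control wells; tested in H4 reporter cells; numbers are from one replicate; inactives centre near -14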
# RN4220 kill = growth inhibition of S. aureus RN4220, primary screen, OD600 | 16 h | inhibition, % (concentration not given with the values) | hit rate 0.33% among 330,000;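 active means z-score of -3 or lower and OD600 up to 0.18 on both plates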;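 further: plate controls were untreated cells for no effect and reference antibiotic for full effect; stock transfer was 100 nL into about 80 µL; one replicate is shown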
# Mtb hypoxia rep = PubChem AID 1159583; M. tuberculosis hypoxia-regulated fluorescent reporter, fluorescence; hit rate 0.1% among 300,000; fluorescence inhibition, % (test concentration not listed);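 active means 35 to 45% if threefold the growth effect, above 45% if 1.5-fold the growth effect; inactive means the rest, general growth blockers included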;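 further: wells of about 50 µL received 100 nL stock; 0% = vehicle wells and 100% = reference inhibitor wells; whole bacteria with a GFP reporter of the hypoxia response; strong numbers were not always called active; many hits fall short of the cut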
# Sa ugtP lethal = growth inhibition of ugtP-null S. aureus, primary screen, RN4220 ugtP deletion, OD600; AID 1259309, 2017; growth inhibition, % (concentration not given with the values); hit rate 0.54% among 330,000; 16 h; some inactives read as strong as hits;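 active means z-score under -3 and OD600 up to 0.15 on both plates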;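 further: plate controls were untreated wells for no effect and antibiotic for full effect; wells of about 80 µL received 100 nL stock; the first replicate is given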
# Bead autofluor = flagged as autofluorescent in microsphere protease counterscreen; compound autofluorescence counterscreen, microsphere flow cytometry; active compounds read high; fluorescence intensity (no concentration beside the values); hit rate 3.1% among 360,000;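 active means at least 3 SD above the mean of all compounds, about 16000 in these data; inconclusive means too few beads counted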;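 further: 100 nL of 1 mM stock went into each well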
# BJeLR lethal = MLPCN primary cell-based screen for lethality selective to Ras in HRASV12 cells; BJeLR (HRASV12) viability, CellTiter-Glo ATP luminescence, 48 h; reference of the scale not given here; inhibition, % (test concentration not listed); hit rate 0.17% among 300,000;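 active means replicate mean above 50%; inconclusive means above 50% but judged a plate artefact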;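 further: 50 nL library stock added to about 25 µL; numbers are from one replicate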
# Mtb hypoxia rep growth = recorded beside Mtb hypoxia rep, whose call it bears; growth inhibition, %; measured here: M. tuberculosis growth (absorbance);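 0% = vehicle and 100% = reference antibiotic; read after six days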
# The depositor's hits bear a star; u = inconclusive; x = not tested or not shown. Rows were taken by chance. Share with any hit: about 4%.
SMILES,PrP UTR inh,RN4220 kill,Mtb hypoxia rep,Mtb hypoxia rep growth,Sa ugtP lethal,Bead autofluor,BJeLR lethal
CCN1CCC2(CC1)N=C(c1ccc(F)cc1)C(=S)N2C(=O)c1ccc(C)cc1,-0.9,1.3,-0.6,0.1,2.1,1833,-4.7
CNS(=O)(=O)c1ccc(C(=O)NCC(=O)NCC2COc3ccccc3O2)cc1 (configuration not stated),-18.4,3.8,5.7,-1.8,3.5,3836,x
Cc1cccc(NC(=O)CSc2nc(-c3ccccc3)c(C#N)c(=O)[nH]2)c1C,-27.0,-6.2,11.4,7.1,-4.9,2491,2.3
CCCCN1C(=O)CC(C(=O)O)C1c1ccc(OC)cc1 (configuration not stated),-9.4,1.3,-4.2,-4.1,-5.7,9865,4.2
CCCCCCCC(=O)N/N=C/c1ccncc1,0.3,x,x,x,x,4360,-2.4
Cc1ccc(C(=O)N2CCN(C)CC2)cc1S(=O)(=O)N1CCOCC1,-6.1,-2.2,7.2,0.5,-1.4,4017,7.6
O=C(Cc1c(O)c2ccccc2[nH]c1=O)NCc1ccccc1F,-26.1,1.3,x,x,1.1,3602,-5.2
COc1cc(OC)cc(C(=O)NCCCCCCNC(=O)c2cc(OC)cc(OC)c2)c1,-12.2,-0.9,0.0,3.4,2.4,3039,x
CC12CN(Cc3ccccc3)CC(C)(CN(Cc3ccccc3)C1)C2=O,-19.7,3.8,10.4,2.5,4.2,4314,3.5
O=C(COc1ccc2c3c(c(=O)oc2c1)CCC3)NCc1ccccn1,-19.9,-0.6,14.7,2.9,-1.5,4307,8.1

# Random excerpt: five entries already listed.
SMILES,PrP UTR inh,RN4220 kill,Mtb hypoxia rep,Mtb hypoxia rep growth,Sa ugtP lethal,Bead autofluor,BJeLR lethal
O=C(Cc1c(O)c2ccccc2[nH]c1=O)NCc1ccccc1F,-26.1,1.3,x,x,1.1,3602,-5.2
CCCCCCCC(=O)N/N=C/c1ccncc1,0.3,x,x,x,x,4360,-2.4
Cc1ccc(C(=O)N2CCN(C)CC2)cc1S(=O)(=O)N1CCOCC1,-6.1,-2.2,7.2,0.5,-1.4,4017,7.6
CC12CN(Cc3ccccc3)CC(C)(CN(Cc3ccccc3)C1)C2=O,-19.7,3.8,10.4,2.5,4.2,4314,3.5
O=C(COc1ccc2c3c(c(=O)oc2c1)CCC3)NCc1ccccn1,-19.9,-0.6,14.7,2.9,-1.5,4307,8.1

# Continued.
SMILES,PrP UTR inh,RN4220 kill,Mtb hypoxia rep,Mtb hypoxia rep growth,Sa ugtP lethal,Bead autofluor,BJeLR lethal
CC(C)N(C)C1=CC(=O)C(N(C)C(C)C)=CC1=O,-58.9,0.3,16.0,13.5,1.5,3595,x
O=c1ccc(-c2ccc(S(=O)(=O)N3CCCCC3)o2)n[nH]1,-7.4,0.5,0.8,-9.2,6.6,4448,-3.5
O=C1OC(N2CCN(C/C=C/c3ccccc3)CC2)c2ccccc21 (configuration not stated),2.1,16.8,4.3,7.6,-10.9,4701,5.0
CCOC(=O)C1CCN(C(=O)c2ccc(OCC(=O)Nc3cccc(C(F)(F)F)c3)cc2)CC1,-21.9,x,x,x,x,5886,-1.8
Cn1c(=O)c2c(nc(CN3CCN(Cc4ccccc4)CC3)n2Cc2cccc(Cl)c2)n(C)c1=O,-4.1,-0.1,8.4,21.6,-5.0,5870,10.0
CC(C(=O)NCC1(c2ccccc2)CCCC1)N1CCCC1 (configuration not stated),-13.7,1.8,8.1,2.7,4.2,5168,-4.8
CCCCN(CCCC)C(=O)c1cn(CC)c2cc(N3CCN(C)CC3)c(F)cc2c1=O,-14.4,93.3*,4.8,-1.1,96.9*,3296,-7.0
COc1cc(C(=O)OCC(=O)NCCC2=CCCCC2)cc(OC)c1OC,-15.4,1.7,1.1,-0.5,4.2,5857,x
CCOc1ccnc(OCC)c1Br,-35.0,5.0,4.0,3.8,-2.1,8119,-3.3
COc1cc(CCC(=O)Nc2cc(Cl)ccc2N2CCN(C)CC2)cc(OC)c1OC,-8.5,-1.2,12.6,5.1,-1.4,10848,-13.9
c1ccc(C(c2ccccc2)c2cccnc2)cc1,-25.4,-0.4,20.9,5.7,24.4,3845,x
CN(C)CCNC(=O)C1CCN(S(=O)(=O)c2ccc3ccccc3c2)CC1,-11.5,x,x,x,x,u,5.2
O=C(c1ccccc1Nc1ccc(SC(F)F)cc1)N1CCCCCC1,-2.4,4.9,9.3,15.3,-5.5,4133,-1.0
C[C@@]12CCC3[C@@](CCC4[C@@]3(C)CCC[C@@]4(C)C(=O)Nc3ccc(Cl)cc3)(CC1=O)C2 (some centres not stated),-40.1,-1.3,7.0,9.4,-28.1,3952,x
COc1ccc2c(c1)C1C(CO2)C(c2ccccc2)[C@]2(C)C(=O)Nc3ccccc3C(=O)N12 (some centres not stated),x,-5.0,4.3,9.9,-11.9,x,x
CC(Sc1nc2cc(Cl)ccc2s1)C(=O)Nc1ccc2c(c1)OCO2 (configuration not stated),-13.4,-3.1,5.5,3.8,39.4,2476,1.5
O=C(O)/C=C/C(=O)NCCc1cccc(Cl)c1,-12.8,7.7,-0.9,7.9,5.9,4237,-5.2
C[C@H]1C=C(C(=O)NC2CC2)O[C@@H](OCc2ccc(CO)cc2)C1,-20.3,x,x,x,x,4162,13.5
C[N+]1(CC(=O)OC2CCCCCCCCCCC2)CCCC1,-27.3,-1.0,4.3,-3.9,7.3,5437,12.9
CSc1cccc(NC(=O)C2CCN(C(=O)c3ccccc3C)CC2)c1,-25.1,6.1,12.7,11.1,7.1,10109,-10.9
O=C1OC(N2CCN(c3ccccn3)CC2)c2ccccc21 (configuration not stated),-6.0,23.3,x,x,-1.0,3911,12.5
CCOc1ccccc1N(C(=O)c1snc(C(N)=O)c1N)C(C(=O)NCCC(C)C)c1ccco1 (configuration not stated),-20.0,4.4,-4.7,-5.3,1.0,9436,-2.5
COc1ccccc1NC(=O)c1nc[nH]c1C(=O)Nc1ccccc1OC,-22.0,3.3,2.0,19.9,-6.6,3364,-2.0
O=C(O)c1ccc(Sc2nnc3ccccn23)c([N+](=O)[O-])c1,-23.8,0.4,10.2,-6.9,7.5,4965,-6.5
COc1ccc(CCNC(=O)c2ccc(CNS(=O)(=O)c3ccccc3)cc2)cc1OC,-25.7,5.0,9.5,9.2,9.9,1924,-0.2
COCCNC(=O)c1onc(CSc2ccc(F)c(F)c2)c1C(=O)O,-7.9,4.6,-5.4,-2.0,-0.6,3729,-2.1
CCN(CC)c1ccc(/C=C2\C(=O)c3ccc(C(=O)O)cc3C2=O)cc1,-49.8,7.8,4.1,7.1,1.9,9698,x
CC12CC(NC(=O)N1c1cccc(C(=O)N3CCN(c4ccccn4)CC3)c1)c1ccccc1O2 (configuration not stated),-11.9,-0.3,5.9,9.7,-9.7,2963,1.8
CCn1cc(C(=O)N2CCN(c3ccccc3)CC2)c(=O)c2cc(S(=O)(=O)N3CCOCC3)ccc21,-9.2,5.3,3.5,-1.8,14.1,4064,-4.4
CCCCCC(=O)NN=Cc1ccc(N(C)C)cc1,x,2.7,7.0,2.7,0.0,x,x
Cc1cc(C)c(C#N)c(Nc2cccc(Br)c2)n1,-17.7,2.0,7.0,13.3,14.5,4075,26.0
C[N+](C)(C)CCNC(=O)c1cc[n+](Cc2ccccc2)c(/C=N/O)c1,-7.2,x,x,x,x,3218,-1.2
CC(C)(C)C(=O)N1CCN(c2ccnc3cc(Cl)ccc23)CC1,-2.6,0.3,7.5,5.0,-3.6,x,-3.6
COc1cccc(NC(=O)CSc2nc(O)c(C)c(=O)n2-c2ccc(C)cc2)c1,-15.7,-1.2,1.4,8.6,15.6,4600,-7.1
NCCCNC(=O)c1ccc(C=NO)nc1,x,1.7,16.4,-6.9,2.0,x,x
COc1ccc(NC(=O)C2CCCN(S(=O)(=O)c3c(C)[nH]c(=O)[nH]c3=O)C2)cc1 (configuration not stated),2.2,2.5,5.4,9.8,2.9,9796,-12.2
COc1ccc(C2C3=C(CCCC3=O)Nc3nc(SCc4ccccc4)nn32)cc1OC (configuration not stated),-4.6,3.6,13.6,3.7,2.8,9582,-13.0
Cc1ccc(-c2nnn(CC(=O)Nc3ccc4nn(-c5ccccc5)nc4c3)n2)o1,-9.2,-1.2,0.9,-3.8,0.6,4294,-7.2
COc1ccc(C(=O)N2CCCCCCC2)cc1OC1CCN(C(C)C)CC1,-1.9,2.9,4.4,1.0,11.3,4189,4.3
CCN(CC(=O)Nc1c(F)cccc1F)C(=O)Cc1ccc2c(c1)OCCO2,-2.5,-0.9,-1.5,0.1,-3.6,3672,x
Cc1cccc(NC(=O)C(C)Oc2ccccc2C)n1 (configuration not stated),-19.5,5.3,-2.0,0.4,-5.4,2828,0.5
O=C(O)C1[C@H]2C(=O)N(C3CCCC3)C[C@]23C=C[C@H]1O3 (some centres not stated),-12.6,4.8,11.1,9.6,6.0,4175,-9.4
CCn1c(=O)cc(N2CCC3(CC2)OCCO3)[nH]c1=O,-9.3,-10.3,3.9,8.5,8.0,4852,-6.9
COc1ccc(C2C3=C(CC(C)(C)CC3=O)Oc3ncn(CCCn4ccnc4)c(=N)c32)cc1 (configuration not stated),-11.4,-16.1,-5.7,-4.2,4.7,3090,-1.7
NNC(=O)c1cc2ccccc2cc1NS(=O)(=O)c1ccccc1,-8.5,1.5,14.7,8.5,5.1,3565,-2.2
CC(C)C(=O)NC(Nc1cccc2cccnc12)C(Cl)(Cl)Cl (configuration not stated),-39.2,-3.7,-7.4,-2.9,-27.8,3690,-7.9
COc1ccc2c(c1)OC(c1cccc(C(F)(F)F)c1)C(OC(=O)Nc1ccc(OC(F)F)cc1)C2=O (configuration not stated),x,-5.6,5.6,4.9,2.9,x,x
CON=CC(=NNc1cc(OC)cc(OC)c1)C(=O)c1ccccc1,x,-6.6,3.3,1.7,-1.6,x,x
Nc1c(C(=O)NN=Cc2ccc([N+](=O)[O-])cc2)sc2nnc(-c3ccccc3)c(-c3ccccc3)c12,x,2.3,3.4,-4.5,1.4,x,x
O=C(Nc1nnc(-c2ccc(F)cc2)o1)c1cc(Cl)sc1Cl,-10.1,99.6*,6.3,-1.2,99.5*,1935,-13.6
# Next part.
SMILES,PrP UTR inh,RN4220 kill,Mtb hypoxia rep,Mtb hypoxia rep growth,Sa ugtP lethal,Bead autofluor,BJeLR lethal
O=C(Nc1cccnc1)Nc1cc(Cl)cc(Cl)c1,-15.1,100.4*,-5.2,1.8,98.8*,1994,-3.5
Nc1ccc(-c2nc(-c3ccccc3)nc3ccccc23)cc1,-2.5,-3.9,-2.8,-3.0,1.3,4174,3.5
C[C@H](CO)N1C[C@H](C)[C@@H](CN(C)C(=O)NC2CCCCC2)Oc2ccc(NS(=O)(=O)c3cn(C)cn3)cc2C1=O,-10.9,2.7,-10.7,5.2,5.3,2781,x
O=C(O)c1cccc(NC(=O)c2ccccc2NC(=O)c2ccccc2F)c1,0.0,-3.7,-15.0,-9.4,-7.6,3909,4.3
O=C(NC1CC1)C(Cc1ccccc1)NS(=O)(=O)c1ccccc1F (configuration not stated),-14.2,6.5,-2.7,13.3,7.3,4214,-8.5
O=C(NCc1ccccc1)c1csc2c1CCCC2,-11.9,-1.5,17.5,20.7,0.5,2622,-4.9
CCN1C(=O)/C(=C\c2cccc(OC(=O)c3ccco3)c2)SC1=S,-10.3,3.7,2.4,-10.3,0.7,6223,-2.5
CCC(=O)N/N=C(\C)CC(=O)Nc1ccc(Cl)cc1,-30.8,x,x,x,x,2640,11.9
Cn1nnnc1SCc1csc(C2C(C#N)=C(N)OC3=C2C(=O)CCC3)c1 (configuration not stated),-36.7,0.1,12.0,-0.8,4.5,4424,-1.5
COc1cc(/C=C\C(=O)OCn2nnc3ccccc3c2=O)cc(OC)c1OC,-12.2,-7.4,6.9,8.0,1.6,4451,-8.7
O=S(=O)(c1ccc(C2CCCCC2)cc1)N1CCOCC1,-19.9,4.6,-2.9,-2.9,3.1,2022,-8.2
O=C(CSc1nc2ncc(Cl)cc2[nH]1)Nc1cccc(F)c1,-17.5,7.3,-1.0,-10.6,1.6,5728,7.9
O=C(O)CC1(CC(=O)NCc2ccc(Cl)cc2)CCCCC1,-21.4,3.5,5.9,0.2,4.4,3931,-7.5
O=C(c1ccccc1)c1ccccc1C(=O)N1CCN(Cc2ccccc2F)CC1,-14.9,4.6,2.4,6.4,2.7,5766,x
